Screening data (PubChem BioAssay)
MLL AF4-AF9 inh – inhibitors of AF4 peptide binding to AF9, primary screen, biochemical, AlphaScreen, biotin-AF4 peptide, FLAG-AF9, single point; Protein AF-9 (Homo sapiens), P42568; inhibition, % at 10 µM; hit rate 0.47% among 350,000;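 active = every replicate reaching a set inhibition limit, whatever the replicate mean, cut at about 25% in these data; inconclusive = mean inhibition reaches that limit but some replicates miss it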;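 note: 0% = plate neutral control median and 100% = total signal loss; the record names both 10 and 1 µM as test concentration; the first replicate is given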
Target sequence (P42568 whole entry, looked up): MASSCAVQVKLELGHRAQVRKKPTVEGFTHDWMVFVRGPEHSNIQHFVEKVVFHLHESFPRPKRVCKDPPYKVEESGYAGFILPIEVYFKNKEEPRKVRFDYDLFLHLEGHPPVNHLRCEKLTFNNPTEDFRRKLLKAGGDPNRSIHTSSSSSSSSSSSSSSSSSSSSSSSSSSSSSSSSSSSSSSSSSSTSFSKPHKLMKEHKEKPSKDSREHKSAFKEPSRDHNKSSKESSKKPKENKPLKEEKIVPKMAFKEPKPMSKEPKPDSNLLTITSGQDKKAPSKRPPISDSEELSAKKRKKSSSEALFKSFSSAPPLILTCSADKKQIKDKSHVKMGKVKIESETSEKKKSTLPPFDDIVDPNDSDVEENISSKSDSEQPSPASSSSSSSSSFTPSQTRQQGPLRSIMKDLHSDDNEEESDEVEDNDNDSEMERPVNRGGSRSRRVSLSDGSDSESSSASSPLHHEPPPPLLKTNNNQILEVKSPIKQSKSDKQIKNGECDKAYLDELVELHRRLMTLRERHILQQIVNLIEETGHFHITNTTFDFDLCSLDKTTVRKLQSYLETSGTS
Vif TR-FRET – inhibitors of Vif binding to APOBEC3G peptide, primary screen, biochemical, TR-FRET, GST-Vif 1-94, biotin-A3G peptide, dose response retest (AID 1117319); Virion infectivity factor (Human immunodeficiency virus type 1 group M subtype B (isolate …; TR-FRET GST-Vif / biotin-A3G peptide binding; higher % means a stronger effect; test concentration not given here; strong numbers were not always called active; inhibition, %; hits with a dose series show IC50 in µM; hit rate 0.57% among 260,000;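 active = above the screen mean plus three standard deviations and confirmed in dose response; inconclusive = results disagree or hit not tested in dose response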;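 note: Vif residues 1-94 fused to GST binding biotinylated APOBEC3G peptide 110-148; 0% = full assay without inhibitor and 100% = GST in place of GST-Vif; retest series ran down from 100 µM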
rRNA inh HTS – reduced GFP signal of wild-type E. coli, primary screen, bacterial rRNA inhibitor project, GFP/RFP fluorescence, OD600, single point; E. coli WT GFP vs humanized-ribosome RFP mutants, 24 h; hits give low values; DMSO median 0, no signal -100; GFP signal change (wild-type ribosome), % (test concentration not listed); hit rate 1.6% among 350,000; AID 720706, 2013;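 active = significant combined selectivity score with lowered wild-type GFP, culture density cut under 30%, mutant RFP and density less affected; inactive = any of these conditions unmet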; note: one replicate is shown; some compounds called inactive have numbers as strong as hits
RanGTP-Impb inh – inhibitors of RanGTP-importin-beta interaction, primary screen, biochemical, FRET, CFP-Ran, YFP-importin-beta, homogeneous. cell-free CFP-Ran/YFP-importin-beta FRET ratio. Ran GTPase (GTP-bound) - importin-beta complex. inhibition, % (concentration not given with the values). hit rate 1.1% among 300,000;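 active = most replicates above 15%; inconclusive = exactly half above 15%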;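 note: 0% = DMSO wells and 100% = Ran loaded with GDP instead of GTP; wells of about 40 µL received 100 nL stock; the first replicate is given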
A1 inh – caspase 3/7 activation in MEF A1-2A-BIM cells, primary screen, A1 inhibitor project, cell-based, luminescence, HTS. caspase activation, % (test concentration not listed). Caspase-Glo 3/7 luminescence, 3 h; percent of clofoctol response, vehicle zero. hit rate 0.066% among 330,000;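 active = over half of replicate activation scores above 10%, or exactly half above 10 with the replicate mean above 10; inconclusive = replicate mean below 10 yet half the replicates above 10; inactive = over half of replicates below 10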;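 note: wells of about 30 µL received 50 nL stock; many hits fall short of the cut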
Beta apoptosis – inhibitors of cytokine-induced beta cell apoptosis, primary screen, luminescence. hit rate 0.8% among 300,000. protection from apoptosis, % (test concentration not listed). INS-1E cytokine-induced death, ATP luminescence, 48 h; percent of positive-control rescue, neutral wells zero;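 active = all replicates at 75% or more, or half of them and the mean; inconclusive = half reach 75% but not the mean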;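 note: 0% = cytokine-treated negative control wells and 100% = positive control rescue; higher means more ATP so stronger rescue from cytokine killing; wells of about 40 µL received 100 nL stock; the first replicate is given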
Calb FLC – C. albicans growth inhibition with fluconazole, primary screen, CaCi-2 strain, Alamar Blue fluorescence; C. albicans CaCi-2 (fluconazole-resistant clinical isolate) + fluconazole, 48 h; growth inhibition, % (test concentration not listed); hit rate 0.57% among 300,000; AID 1979, 2009;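 active = most replicates above 75%; inconclusive = exactly half above 75%; inactive = most below 75%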;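 note: all wells also contain fluconazole at 8 µg/ml as a sub-toxic cotreatment; 0% = median of DMSO wells and 100% = median of geldanamycin control wells; wells of about 8 µL received 7.5 nL stock; the first replicate is given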
T cruzi repl – inhibitors of intracellular T. cruzi growth, primary screen, luminescence, NIH3T3 host cells. T. cruzi beta-gal in NIH3T3, 90 h. inhibition, % (concentration not given with the values). hit rate 1.4% among 300,000. AID 1885, 2009;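 active = mean inhibition across valid replicates above about 55%, limit read from the data; inconclusive = mean below that limit but half or more replicates reach it; inactive = mean below it, under half of replicates reach it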;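 note: signal also drops with host cell toxicity which is not excluded here; 0% = plate median of DMSO wells and 100% = zero luminescence signal; higher percent means less beta-gal luminescence so fewer parasites; stock transfer was 50 nL into about 50 µL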
rRNA inh HTS OD600 – further read-out of rRNA inh HTS, marked with its call; OD600 change, %; measured here: OD600 growth;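 optical density of the mix in the first replicate; 0 = DMSO median and -100 = no signal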
rRNA inh HTS RFP – further read-out of rRNA inh HTS, marked with its call; RFP signal change, %; measured here: RFP humanized mutant strains;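 first replicate; 0 = DMSO median and -100 = no signal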
Starred values were filed as active, the others as inactive; ? = inconclusive; nt = no result given. These rows are one share of the data. The share of hits here may be higher or lower than overall.

item | molecule | rRNA inh HTS OD600 | RanGTP-Impb inh | MLL AF4-AF9 inh | Beta apoptosis | Calb FLC
1 | O=C(NC(NC(=S)Nc1c(Cl)cccc1Cl)C(Cl)(Cl)Cl)c1cccc([N+](=O)[O-])c1 (stereo not given) | nt | 5.0 | nt | 27 | -1
2 | O=C(Cc1csc(NC(=O)Nc2ccc(Cl)cc2)n1)NC1CCCC1 | -65 | -4.0 | -0.5 | 1 | -10
3 | Cc1ccc(NC(=O)CCS(=O)(=O)c2ccccc2)cc1S(=O)(=O)N1CCOCC1 | -5 | 0.1 | 1.7 | -10 | 0
4 | Cc1cc(NC(C)C)n2c(nc3ccccc32)c1C#N | 0 | -3.3 | -7.6 | 3 | 12
5 | C=CCn1nnnc1-c1cccc(Cl)c1 | -8 | 0.6 | -6.7 | -4 | -1
6 | CCC(CO)Oc1cc(NCc2ccc(C(C)(C)C)cc2)c2ncn(C(C)C)c2c1 (stereo not given) | 9 | nt | -7.5 | 137* | nt
7 | Cc1cc(C)n2c(SCc3nnc(-c4cccs4)o3)nnc2n1 | nt | 0.4 | nt | -5 | 4
8 | Cc1[nH]c2ccccc2c1CCNC(=O)c1ccc2c(c1[N+](=O)[O-])C(=O)c1ccccc1C2=O | nt | 7.8 | nt | 10 | 33
9 | COC(=O)c1sc(=S)sc1C(=O)OC | 3 | 4.0 | -5.8 | -15 | 2
10 | N#CC1=C(N)Oc2ccc3ccccc3c2C1c1cccnc1 (stereo not given) | -78 | 4.5 | -1.8 | nt | -39

item | T cruzi repl | rRNA inh HTS | A1 inh | Vif TR-FRET | rRNA inh HTS RFP
1 | 59* | nt | 0.6 | ? | nt
2 | -4 | -38 | 0.9 | -5% | -1.4
3 | -7 | 5 | 0.4 | 31% | -0.3
4 | 10 | 2 | 0.0 | 2% | -2.7
5 | -3 | 11 | 0.6 | 5% | 2.7
6 | nt | 3 | -0.8 | nt | -1.0
7 | -5 | nt | 0.9 | nt | nt
8 | 18 | nt | -0.7 | 30% | nt
9 | -8 | 7 | 0.1 | ? | 1.3
10 | 3 | -57 | nt | nt | -19

(next part)
item | molecule | rRNA inh HTS OD600 | RanGTP-Impb inh | MLL AF4-AF9 inh | Beta apoptosis | Calb FLC
11 | Cc1ccc(/C(O)=C/C(=O)C(=O)NC23CC4CC(CC(C4)C2)C3)cc1 | 4 | 2.4 | 3.9 | -1 | 5
12 | Cc1cc(NC(=O)Cc2ccccc2)nc2c1c(=O)oc1ccccc12 | 10 | 4.1 | 5.1 | 9 | -4
13 | Nc1nc(N)c2[nH]cnc2n1 | nt | -2.6 | nt | -3 | -1
14 | Nc1ccnn1Cc1cccs1 | 14 | 3.9 | 2.8 | -4 | 8
15 | O=C1Nc2ccccc2C12OCCS2 (stereo not given) | nt | 2.3 | nt | -4 | 6
16 | CSCCC(CO)NC(=O)OCc1ccccc1 (stereo not given) | nt | 0.7 | nt | 1 | 2
17 | Cc1ccc[n+](Cc2ccc([N+](=O)[O-])cc2)c1 | 12 | 2.2 | -0.7 | 4 | -8
18 | c1ccc2c(c1)oc1c(N3CCOCC3)ncnc12 | nt | -1.1 | nt | -1 | 0
19 | COc1ccc(N2CCN(C(=O)C(OC(C)=O)c3ccccc3)CC2)cc1 (stereo not given) | nt | -1.1 | nt | -6 | -3
20 | COc1ccc(N2CCN(C(=O)c3oc4c(c3C)C(=O)CCC4)CC2)cc1 | -2 | 2.5 | 1.3 | -2 | 0

item | T cruzi repl | rRNA inh HTS | A1 inh | Vif TR-FRET | rRNA inh HTS RFP
11 | -18 | 8 | -0.6 | 6% | 2.1
12 | -2 | 2 | 0.8 | -9% | -2.5
13 | 53 | nt | 0.9 | nt | nt
14 | 1 | 4 | 0.8 | nt | 0.9
15 | -7 | nt | 0.5 | 0% | nt
16 | -2 | nt | -0.4 | 76% | nt
17 | -27 | 14 | -0.5 | ? | 0.5
18 | -14 | nt | -0.2 | 7% | nt
19 | -10 | nt | 1.1 | 6% | nt
20 | 9 | -7 | -0.4 | 1% | -4.0

Other compounds.
item | molecule | rRNA inh HTS OD600 | RanGTP-Impb inh | MLL AF4-AF9 inh | Beta apoptosis | Calb FLC
21 | O=C(Nc1ccc(NC(=O)c2cc([N+](=O)[O-])ccc2N2CCOCC2)cc1)c1cccs1 | 3 | ? | -3.1 | -4 | -7
22 | CC(C)[C@H](NC(=O)NCCc1ccc(Cl)cc1)C(=O)O | 17 | 2.8 | 2.7 | 2 | 1
23 | CCc1cc2c(=O)c(-c3nc4ccccc4n3C)c(CCCC(=O)O)oc2cc1OC(=O)C(C)(C)C | -8 | -0.1 | -0.2 | -2 | -3
24 | CC12CCC(=O)N1C(C(=O)Nc1ccccc1N1CCOCC1)CS2 (stereo not given) | 4 | 1.0 | 2.1 | nt | -5
25 | O=C(NC(=O)c1ccc(C(F)(F)F)cc1)Nc1ccc(-c2cnco2)cc1 | 11 | 4.5 | nt | 8 | -4
26 | COc1ccc(S(=O)(=O)N2CCC(C(=O)NCCC(=O)Nc3nccs3)CC2)cc1 | 12 | 0.9 | -2.7 | -1 | 31

item | T cruzi repl | rRNA inh HTS | A1 inh | Vif TR-FRET | rRNA inh HTS RFP
21 | 3 | -11 | 0.0 | ? | -6.9
22 | -6 | 13 | -0.6 | 1% | -7.8
23 | -11 | -5 | 1.0 | 0% | 0.0
24 | -8 | 15 | 0.4 | 11% | 1.3
25 | -7 | 6 | 0.2 | -10% | 1.2
26 | 4 | 6 | 0.2 | 0% | 1.8

Gathered by group: the compounds so far with a halogen
item | molecule | rRNA inh HTS OD600 | RanGTP-Impb inh | MLL AF4-AF9 inh | Beta apoptosis | Calb FLC
1 | O=C(NC(NC(=S)Nc1c(Cl)cccc1Cl)C(Cl)(Cl)Cl)c1cccc([N+](=O)[O-])c1 (stereo not given) | nt | 5.0 | nt | 27 | -1
2 | O=C(Cc1csc(NC(=O)Nc2ccc(Cl)cc2)n1)NC1CCCC1 | -65 | -4.0 | -0.5 | 1 | -10
5 | C=CCn1nnnc1-c1cccc(Cl)c1 | -8 | 0.6 | -6.7 | -4 | -1
22 | CC(C)[C@H](NC(=O)NCCc1ccc(Cl)cc1)C(=O)O | 17 | 2.8 | 2.7 | 2 | 1
25 | O=C(NC(=O)c1ccc(C(F)(F)F)cc1)Nc1ccc(-c2cnco2)cc1 | 11 | 4.5 | nt | 8 | -4

item | T cruzi repl | rRNA inh HTS | A1 inh | Vif TR-FRET | rRNA inh HTS RFP
1 | 59* | nt | 0.6 | ? | nt
2 | -4 | -38 | 0.9 | -5% | -1.4
5 | -3 | 11 | 0.6 | 5% | 2.7
22 | -6 | 13 | -0.6 | 1% | -7.8
25 | -7 | 6 | 0.2 | -10% | 1.2
